# D2 potentiator: potentiates the human D2 dopamine receptor allosterically; AID 624464; DiscoveRx D2 beta-arrestin cells, luminescence, 90 min; 100% = 57 uM dopamine signal; potentiation, % (concentration not given with the values); 360,000 compounds, 0.23% hits; active = potentiation of 50% or more; inconclusive = 30% to 50%; inactive = 30% or less;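 further: tested on top of an EC20 dose of dopamine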
# Target sequence (P14416 whole entry, looked up): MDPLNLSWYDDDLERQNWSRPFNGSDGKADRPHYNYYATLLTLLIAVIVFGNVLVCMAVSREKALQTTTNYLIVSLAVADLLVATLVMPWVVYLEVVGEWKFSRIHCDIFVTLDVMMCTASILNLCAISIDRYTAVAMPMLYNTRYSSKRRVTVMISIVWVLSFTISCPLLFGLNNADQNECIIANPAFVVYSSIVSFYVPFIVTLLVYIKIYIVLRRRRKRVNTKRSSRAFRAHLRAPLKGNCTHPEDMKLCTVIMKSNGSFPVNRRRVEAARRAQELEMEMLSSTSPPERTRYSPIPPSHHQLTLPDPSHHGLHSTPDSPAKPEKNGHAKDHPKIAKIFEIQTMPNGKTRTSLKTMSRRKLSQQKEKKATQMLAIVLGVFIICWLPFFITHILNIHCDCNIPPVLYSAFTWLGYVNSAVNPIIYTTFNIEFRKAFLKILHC
#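 PathHunter beta-arrestin assay in DiscoveRx D2 cells. Compounds were added with an EC20 of dopamine (50 nM final) for 90 min at 37 deg C. Luminescence was read 1 h after detection reagent, with 57 uM dopamine as the EC100 control.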
# Six1-Eya2 inh: inhibitors of human Six1/Eya2 interaction | AID 651725 | AlphaScreen GST-Six1/His-Eya2 binding, biochemical; hits give low values; control for the full effect not named in the record | Q15475+O00167 | activity change, % (test concentration not listed) | 360,000 compounds, 0.56% hits; in the data active = activity change below about -65%; inconclusive = about -30% to -65%; inactive = above about -30%; further: on the % scale 0 is the no-effect control and ±100 the full control effect
#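 AlphaScreen luminescence read after one hour at 37 °C in darkness. Pin-transferred compounds met GST-Six1 and His-Eya2 protein (5X stock 250 nM/500 nM) plus glutathione donor and Ni-chelate acceptor beads (5X, 50 ug/mL).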
# TRPML1 agonist: agonists of human TRPML1 channel. AID 624414. TRPML1-expressing cells, Ca2+ dye fluorescence, FDSS; host cell line not named in the record; reference of the full effect not given here. 410,000 compounds, 0.12% hits. activation, % (no concentration beside the values); in the data active = activation above about 50%; inconclusive = about 30% to 50%; inactive = below about 30%; further: 0% is about no effect; the text of the record puts the active cut at 80%
# Target sequence (Q9GZU1 whole entry, looked up): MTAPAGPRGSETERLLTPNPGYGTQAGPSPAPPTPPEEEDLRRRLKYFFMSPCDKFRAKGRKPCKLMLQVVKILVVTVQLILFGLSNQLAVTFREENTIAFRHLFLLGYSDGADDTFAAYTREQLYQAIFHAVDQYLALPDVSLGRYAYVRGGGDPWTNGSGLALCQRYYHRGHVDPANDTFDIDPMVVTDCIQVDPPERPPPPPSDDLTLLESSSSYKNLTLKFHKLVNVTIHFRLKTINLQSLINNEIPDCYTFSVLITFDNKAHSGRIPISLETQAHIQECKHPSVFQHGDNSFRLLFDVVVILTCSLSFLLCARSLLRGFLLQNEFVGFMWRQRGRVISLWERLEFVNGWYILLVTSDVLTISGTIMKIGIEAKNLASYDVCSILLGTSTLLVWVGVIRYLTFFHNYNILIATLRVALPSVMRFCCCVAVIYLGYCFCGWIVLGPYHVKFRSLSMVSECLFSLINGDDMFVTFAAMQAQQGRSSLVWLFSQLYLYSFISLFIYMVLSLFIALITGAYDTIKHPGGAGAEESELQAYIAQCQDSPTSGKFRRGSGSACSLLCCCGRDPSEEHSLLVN
#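 Tetracycline-induced TRPML1-DL cells are seeded and incubated overnight before loading with a no-wash Ca2+ dye and quencher. Agonist activity is taken from the 110 s fluorescence read following compound pin-transfer on an FDSS, before EC80 54-4 challenge.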
# D2 ag: agonists of human D2 dopamine receptor (beta-arrestin); activation, % (test concentration not listed); DiscoveRx PathHunter D2 beta-arrestin, luminescence, 90 min; 100% = 57 uM dopamine signal; 360,000 compounds, 0.084% hits; in the data active = activation above about 40%; inconclusive = about 15% to 40%; inactive = below about 15%; further: compound concentration not given in the record; the text of the record calls up to 30% inactive
#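 DiscoveRx PathHunter D2 beta-arrestin cells (2,100/well) attached overnight, then compound-stimulated 90 min at 37 C in HBSS/10 mM HEPES/0.1% Tween-20 buffer; beta-galactosidase complementation read by luminescence after 1 h at ambient temperature. Dopamine 57 uM final (EC100) as control.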
# CtBP-E1A blk: blocks the CtBP interaction with E1A | AlphaScreen GST-E1A/His-CtBP binding, 1536-well; hits give low values; control for the full effect not named in the record | AID 651724 | activity change, % (concentration not given with the values) | 340,000 compounds, 0.49% hits; in the data active means activity change below about -65%; inconclusive means about -30% to -65%; inactive means above about -30%; further: on the % scale 0 is the no-effect control and ±100 the full control effect
#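 Protein mix (5X: 125 nM each GST-E1A, His-CtBP) was incubated with pinned compound 2 h at 37 deg C in dark, in 50 mM Tris pH 8.0 buffer with 300 mM NaCl. Glutathione donor and nickel acceptor beads followed; AlphaScreen signal read after 1 h.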
# PINK1 modulator: modulators of PINK1 expression. 410,000 compounds, 0.2% hits. PINK1 immunofluorescence, high-content cytometry, 24 h. AID 624263. Potency, µM (top dose mostly 76.6 µM), inactives show top-dose activation (PINK1 increase), usual class: activators; active = well fitted activation curve with a large enough effect; inconclusive = small, poorly fitted or top-dose-only effect; inactive = flat fitted curve, though single readings scatter; cell line not stated here;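 further: potency means the concentration at half of the fitted maximal effect; % of control where 0% means no effect; nearly all actives have a fitted effect of over 65% in size; a mitochondrial uncoupler was the plate control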
#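 Decision-based qHTS: stable cells, 24 h exposure to five compound concentrations, CCCP as control. Fixed cells stained for PINK1 plus nuclear, mitochondrial and cell markers, cytometer read.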
# Active calls of the source: *; u = inconclusive; x = no result given; [ ] = dose if it differs, or a comment.
SMILES,D2 potentiator,Six1-Eya2 inh,TRPML1 agonist,D2 ag,CtBP-E1A blk,PINK1 modulator
CC1(C)CC[C@]2(C(=O)O[C@@H]3O[C@H](CO)[C@@H](O)[C@H](O)[C@H]3O)CC[C@]3(C)C(=CCC4[C@@]5(C)CC[C@H](O[C@@H]6O[C@H](C(=O)O)[C@@H](O[C@H]7OC[C@@H](O)[C@@H](O)[C@@H]7O)[C@H](O)[C@H]6O)C(C)(C)C5CC[C@]43C)[C@@H]2C1 (stereo partly drawn),-17,-4,-0.6,2.1,-2,0.5%
CSCCC(=O)N1CCCC(N2CCN(c3cccc(C(F)(F)F)c3)CC2)C1 (stereo not drawn),-3,3,-1.2,-0.7,x,0.2%
NC12CC3CC(C1)CC(CC(=O)O)(C3)C2,-5,9,-0.2,-3.3,0,1.4%
CCOC(=O)N1CCC(NC(=O)c2ccc(NC(=O)C3CCCO3)cc2)CC1 (stereo not drawn),4,6,-0.2,-2.6,-2,-2.7%
CCC(C(=O)NCCc1ccc(OC)c(OC)c1)n1nc(C)n2c(cc3occc32)c1=O (stereo not drawn),1,11,-1.0,-1.6,2,0.8%
N#Cc1c(Nc2ccccc2)c(/C=N/N=C/c2ccccc2)c[nH]c1=O,-11,-19,0.4,-3.5,-5,6.2%
Cc1csc(SC(C)C(=O)NCc2ccc3c(c2)OCO3)n1 (stereo not drawn),-35,1,-1.6,0.6,0,0.7%
COc1ccc(C(=O)NCC(C)(C)CNC(=O)c2ccc(OC)c(OC)c2)cc1OC,-3,11,-0.7,-2.8,3,1.5%
O=C(CSc1nnc(CNC(=O)c2ccccc2F)o1)NC1CCCC1,-6,0,-0.5,1.9,6,-0.1%
O=C(Nc1ccc(S(=O)(=O)NCc2cccnc2)cc1)c1ccco1,-4,-1,4.4,-0.7,4,-1.5%
COCCCNC(=O)C1CC(=O)N(CCc2ccc(OC)c(OC)c2)C1 (stereo not drawn),5,-1,-0.5,-1.9,9,0.9%
CC(=O)NC1C(OCc2cccc(Br)c2)OC(COC(C)=O)C(OC(C)=O)C1OC(C)=O (stereo not drawn),-19,22,-0.2,-5.9,-9,0.0%
Cc1nn(C)cc1CN(C)S(=O)(=O)c1cccc([N+](=O)[O-])c1,-6,30,-0.8,-0.8,0,-0.2%
C=CCn1c(O)c(N=NC(=O)CNC(=O)c2cccs2)c2ccccc21,-8,-4,1.7,-5.4,x,5.9%
Cc1c(C(=O)Nc2cccc(Cl)c2)oc2ccc(S(=O)(=O)N3CCC4(CC3)OCCO4)cc12,-6,5,1.0,1.2,8,14%[38.3 µM]
C=CCSc1nnc2c(n1)OC(C)=Nc1ccc(Br)cc1-2,-5,-8,1.1,-5.1,x,4.9%
O=C(CCCc1ccccc1)NCc1ccc(F)cc1,-26,10,-0.2,-2.1,13,-2.5%
Cc1ccc(Nc2nc(CSc3nnc(-c4ccc(F)cc4)n3C)cs2)cc1,-22,-13,2.1,-0.6,-25,0.9%
C=CCOc1ccc(-c2n[nH]c(=S)o2)cc1,-4,1,-0.1,-2.5,3,-1.3%
FC(F)(F)c1cccc(CNC2CCN(Cc3ccccc3)CC2)c1,-17,18,1.0,-3.9,-10,0.0%
Cc1cccc(NC(=O)CSc2nnc(CN3CCOCC3)n2C)c1C,-7,26,-0.5,1.3,0,1.1%
Nc1cccc(C(=O)Nc2cccc3ncccc23)c1,-4,2,-0.3,-6.4,-6,0.6%
CC1(C)CC(=O)c2cc(OCC(=O)N3CCN(c4ccccc4F)CC3)ccc2O1,-6,1,1.4,2.9,11,x
CC12CCC(=O)C=C1CCC1C2C(O)CC2(C)C1CCC2(O)C(=O)CO (stereo not drawn),-3,2,0.2,-2.4,-1,4.5%
CCCNC(=O)CCn1c(-c2ccc(C)cc2)cc(C(=O)OCC)c1C,-18,-8,0.4,-3.1,-7,-0.6%
CCOC(=O)N1CCC(NC(=O)Cc2cn(C)c3ccccc23)CC1,-11,-9,0.0,-2.2,1,2.6%
COc1ccc(CNC(=O)C/C(C)=N/NC(=O)COc2cccc(C)c2)cc1,12,5,0.8,-1.4,4,1.3%
CN(CC(=O)NCc1ccc(F)cc1)Cc1ccc(Br)cc1,-2,-4,-0.4,1.1,5,-3.2%
CCc1ccc(NC(=O)CS(=O)CC(=O)Nc2ccc(F)cc2F)cc1 (stereo not drawn),-5,5,3.0,-0.7,4,0.3%[38.3 µM]
Clc1cccc(Cl)c1Cn1cnc2c(NCc3ccco3)ncnc21,-3,3,2.1,-2.9,2,24%[38.3 µM]
COc1ccc(-c2nc(NC(=O)C3CCN(c4nc5ccccc5o4)CC3)sc2C)cc1,11,-14,0.2,4.8,-11,0.3%
CCCCN1C(Nc2ccccc2)=NC[C@@H]1CC(C)C,-9,2,0.5,-4.5,2,-0.6%
COc1cc(/C=C/C(=O)OCC(=O)NCCN2C(=O)CSC2=O)ccc1OCC#N,-2,3,1.1,-0.1,3,2.2%
O=C(CSc1ncnc2c1sc1ccccc12)Nc1ccc(Br)cc1,-10,0,0.2,-2.8,16,9.3%
O=C(NNC(=O)c1cccnc1)Nc1ccccc1,-12,6,-0.4,-1.8,6,x
O=C(CCc1nnc(Cc2ccc3c(c2)OCO3)o1)NCc1nc2ccccc2s1,1,-3,0.9,-4.6,-9,2.0%
CN1CCC(OC(=O)COc2ccc(Cl)cc2Cl)CC1,-19,7,-0.5,-1.8,9,1.1%
O=C(NC1CCN(C(=O)Nc2ccccc2)CC1)C1CCCCC1,-1,3,-0.2,-1.3,15,-0.2%
O=C1CCC([N+](=O)[O-])C(c2cc3c(cc2Cl)OCO3)N1 (stereo not drawn),-6,-2,-0.1,-2.7,x,0.1%
CCCCN(CCCNC(=O)CN1C(=O)COc2ccccc21)c1ccccc1,-15,-19,2.7,-1.1,2,x

# Not a retest: entries from further up.
SMILES,D2 potentiator,Six1-Eya2 inh,TRPML1 agonist,D2 ag,CtBP-E1A blk,PINK1 modulator
O=C(CCc1nnc(Cc2ccc3c(c2)OCO3)o1)NCc1nc2ccccc2s1,1,-3,0.9,-4.6,-9,2.0%
CN1CCC(OC(=O)COc2ccc(Cl)cc2Cl)CC1,-19,7,-0.5,-1.8,9,1.1%
O=C(NC1CCN(C(=O)Nc2ccccc2)CC1)C1CCCCC1,-1,3,-0.2,-1.3,15,-0.2%
O=C1CCC([N+](=O)[O-])C(c2cc3c(cc2Cl)OCO3)N1 (stereo not drawn),-6,-2,-0.1,-2.7,x,0.1%

# (list continues)
SMILES,D2 potentiator,Six1-Eya2 inh,TRPML1 agonist,D2 ag,CtBP-E1A blk,PINK1 modulator
O=C(NNc1ccccc1)c1ccc(Cl)c(Cl)c1,-17,-4,1.6,-7.9,3,4.7%
O=C(Nc1ccccc1NC(=O)c1ccccc1Cl)c1ccccc1Cl,5,2,0.6,-1.5,3,4.1%
Cc1ccc(Cl)c(NC(=O)COC(=O)C2CCC2)c1Cl,0,2,-1.0,-0.6,8,2.3%
Cc1cc(C(=O)N/N=C/c2ccc[nH]2)n[nH]1,-3,6,-0.1,1.2,6,1.3%
S=c1nc(-c2ccccc2)n(CCN2CCOCC2)c2c1CCCC2,-2,-2,0.1,-1.8,3,8.3%[38.3 µM]
O=C(CCNC(=O)N1CC(=O)Nc2ccccc21)NCc1ccc(F)cc1,-27,1,-0.6,-10.0,3,-1.1%
CN(Cc1ccccc1)C(NC(=O)c1ccccc1)C(Cl)(Cl)Cl (stereo not drawn),-10,8,-0.5,-3.5,7,0.3%[38.3 µM]
CC(=O)Nc1ccc(Nc2nc(Cl)nc(Nc3ccc(NC(C)=O)cc3)n2)cc1,5,-27,-1.5,0.3,u,10%
COC(=O)C1C2OC(C(Br)C2Br)C1C(=O)OC (stereo not drawn),0,-2,0.1,-4.5,4,-1.3%
CCOC(=O)c1ccc(N2C(=O)c3n[nH]c(-c4ccco4)c3C2c2ccc([N+](=O)[O-])cc2)cc1 (stereo not drawn),2,u,1.0,-0.6,-2,15%
CCOC(=O)Cc1[nH]nc2c1C(C1C=CCCC1)C(C#N)=C(N)O2 (stereo not drawn),-6,-9,-0.8,-1.8,-1,1.8%
CC(C)c1onc(C(=O)NC(C)c2ccccc2)c1[N+](=O)[O-] (stereo not drawn),-12,0,0.2,-4.6,x,0.6%
CCOc1cccc(C(=O)Nc2ccccc2C(=O)N2CCOCC2)c1,-1,4,0.4,-1.3,-5,-0.6%
CCOC(=O)c1sc(N)c(C(=O)OCC)c1COC(=O)C1CC(=O)N(Cc2ccco2)C1 (stereo not drawn),-33,-4,-0.2,-6.5,3,1.3%
COc1cc(/C=N/NC(=O)c2nonc2C)ccc1O,-4,-4,-0.1,0.0,4,1.7%
Cc1ccc(NC(=O)Cn2nc(C)c3ccccc3c2=O)c(C)c1,8,4,1.1,0.1,-2,0.1%
CCc1cc(=O)oc2c(C)c(OCC(=O)NCc3ccccn3)ccc12,-9,5,-0.7,-8.3,x,-0.1%
CCOC(=O)c1c(C)oc2cc(Br)c(OCC(N)=O)cc12,0,6,-0.3,-3.3,3,1.1%
COc1ccc(S(=O)(=O)N2CCN(C3CCCC(C)C3)CC2)cc1 (stereo not drawn),-8,-4,-0.2,3.2,-8,0.4%
O=C(NC1(C(F)(F)F)NC(=O)N(Cc2cccnc2)C1=O)c1cccs1 (stereo not drawn),-1,1,-0.3,-0.1,4,1.3%
COc1ccc([C@H]2[C@H](C(=O)C(C)(C)C)N3N=Cc4ccccc4C3[C@]23N=C(c2ccccc2)OC3=O)cc1OC (stereo partly drawn),58*,-11,-0.4,7.3,-5,-1.6%
O=C(CNC(=O)c1nc[nH]c1C(=O)N1CCc2ccccc2C1)OCc1ccccc1,11,6,2.7,12,-25,2.2%
O=C(CN1CCCCCC1)Nc1ccc(S(=O)(=O)N2CCOCC2)cc1,8,-1,-0.4,-2.0,0,2.2%
C=CCc1c(O)c(CC)cc2c(C)cc(=O)oc12,-4,3,0.9,1.7,4,2.3%
COc1ccc(C(O)c2nc(-c3ccc(F)cc3OC)cs2)cc1 (stereo not drawn),-6,1,-0.2,-7.9,10,4.4%
CCCCn1c(N)c(N(CCOC)C(=O)c2ccc3c(c2)C(=O)N(c2ccccc2C)C3=O)c(=O)[nH]c1=O,-14,5,-0.6,-5.5,7,2.2%
C=CCNc1nc(-c2sc(NC(=O)C(C)(C)C)nc2C)c(-n2cc(-c3ccccc3)nn2)s1,x,-15,-1.0,x,3,-0.1%
COc1ccc(CC(=O)Oc2ccc(C)cc2Br)cc1S(=O)(=O)N1CCOCC1,-9,u,1.2,-3.2,2,0.2%
O=C(N/C(=N\O)c1ccccc1)Nc1ccc(Cl)cc1,-14,3,-0.3,-0.3,5,4.5%
CCCCn1c(N)c(N(CCOC)C(=O)CCS(=O)(=O)c2ccc(Cl)cc2)c(=O)[nH]c1=O,-9,10,-0.2,-0.7,-21,-1.4%
CCOC(=O)Cc1csc(NC(=O)C(C)c2ccc([N+](=O)[O-])cc2)n1 (stereo not drawn),-8,-5,12,-3.9,-10,2.7%
N#Cc1ccccc1OCC(=O)N1CC(=O)Nc2ccccc21,-10,8,0.1,-1.6,2,2.9%

# Compounds as they come (roughly 1.3% active in at least one column).
